# SARS PLP yeast: SARS-CoV PLP inhibition in yeast; 330,000 compounds, 0.19% hits; Potency, µM (highest dose often 32.9 µM), inactives show top-dose activity, positive = growth rescue; S. cerevisiae expressing SARS-CoV PLpro, growth rescue; control for the full effect not named in the record; active means well fitted rising curve with a large enough effect; inconclusive means small, poorly fitted or top-dose-only effect; inactive means no such curve, though single readings can be large or run the other way; also: 0% is about no effect; nearly all actives have a fitted effect of over 55% in size; growth read by luminescence after 48 h
# Cruzain inh noDet: inhibitors of Trypanosoma cruzi cruzain without detergent; P25779; purified cruzain, Z-FR-AMC fluorescence, no detergent; Potency, µM, for inactives: max response, negative = inhibition, most hits filed as inhibitors; 200,000 compounds, 2.3% hits; AID 1476;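 also: plate controls were enzyme without inhibitor for no effect and buffer without enzyme for full effect; nearly all actives have a fitted effect of over 40% in size; top concentration of the series not given in the record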
# Target sequence (P25779 123-467 limits assumed): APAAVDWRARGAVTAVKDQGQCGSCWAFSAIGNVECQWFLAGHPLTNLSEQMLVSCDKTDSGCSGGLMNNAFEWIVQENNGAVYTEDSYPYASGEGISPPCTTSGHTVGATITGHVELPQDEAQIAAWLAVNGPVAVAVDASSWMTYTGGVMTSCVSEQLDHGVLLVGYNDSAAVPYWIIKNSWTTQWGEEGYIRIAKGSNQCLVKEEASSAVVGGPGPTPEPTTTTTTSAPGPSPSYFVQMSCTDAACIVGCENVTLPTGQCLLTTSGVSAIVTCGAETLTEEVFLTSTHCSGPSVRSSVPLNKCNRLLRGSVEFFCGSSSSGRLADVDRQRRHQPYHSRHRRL
#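 Detergent-free condition (0.00005% Triton X-100) in acetate buffer pH 5.5 with DTT. 1.5 nM enzyme and compound were pre-mixed 15 min, then 2 uM Z-FR-AMC substrate added; reaction progress from fluorescence change between first and third reads (60 s).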
# Marburg entry inh: blocks Marburg virus binding to or entry into cells. Potency, µM (series often up to 37.8 µM), inactives show at the top dose activity change, negative = inhibition, usual class: inhibitors. AID 540276. Marburg virus pseudotyped entry inhibition, cell reporter; control for the full effect not named in the record; about a third of the inactives were read at about 46 µM. 300,000 compounds, 1.8% hits; active = well fitted inhibition curve with a large enough effect; inconclusive = small, poorly fitted or top-dose-only effect, or effect the other way; inactive = flat fitted curve, though single readings scatter; tested in HEK293 cells; about a fifth of its hits are not listed in these tables; also: % is scaled to controls: 0 for no effect and ±100 for the full control effect; luciferase read-out
# RE007 growth inh: less growth of the S. pombe RE007 Vpr strain; 360,000 compounds, 0.21% hits; Potency, µM (doses to about 92.2 µM), for the others: top-dose activity change, negative = less growth; S. pombe RE007 Vpr strain, BacTiter-Glo ATP luminescence, 24 h; control for the full effect not named in the record; active = well fitted falling curve with a large enough effect; inconclusive = small, poorly fitted or top-dose-only effect; inactive = no such curve, though single readings can be large or run the other way;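 also: % is scaled to controls: 0 for no effect and ±100 for the full control effect; nearly all actives have a fitted effect of over 50% in size; the assay follows cell death caused by Vpr and the record does not say whether a fall means rescue or toxicity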
#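 Fission yeast strain RE007, carrying one chromosomally integrated HIV-1 vpr copy, was seeded at OD 0.01 in PMG+AL medium with 23 nL pinned compound. After 24 h at 30 °C and 99% humidity, viability was read by BacTiter-Glo luminescence.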
# LASV entry inh: inhibitors of Lassa virus binding or cell entry; Lassa virus pseudotype entry inhibition, cell reporter; control for the full effect not named in the record; Potency, µM (titrated, usually from 37.9 µM), inactives show at the top dose activity change, negative = inhibition, usual class: inhibitors; 300,000 compounds, 1.2% hits; active means well fitted inhibition curve with a large enough effect; inconclusive means small, poorly fitted or top-dose-only effect, or effect the other way; inactive means flat fitted curve, though single readings scatter; tested in HEK293 cells; also: % is scaled to controls: 0 for no effect and ±100 for the full control effect; nearly all actives have a fitted effect of over 50% in size; luciferase read-out
# NS1 function inh: influenza NS1 inhibition | Potency, µM (top dose mostly 46.1 µM), for the others: top-dose activity, positive = more growth | 270,000 compounds, 0.4% hits | S. cerevisiae slowed by influenza A NS1, growth recovery by OD600; active means well fitted rising curve with a large enough effect; inconclusive means small, poorly fitted or top-dose-only effect; inactive means no such curve, though single readings can be large or run the other way; also: nearly all actives have a fitted effect of over 50% in size
#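 In this qHTS, NS1 from influenza A is expressed in budding yeast, where it slows growth. Cells are switched from glucose to 2% galactose medium (pH 6.0, -URA), treated with compound, and growth recovery is read at OD600.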
# 2A StopGo: lowers the luciferase signal of an FMDV 2A StopGo reporter; human cells with a luciferase reporter of 2A StopGo recoding; control for the full effect not named in the record; 410,000 compounds, 1.2% hits; Potency, µM (doses to about 57.9 µM), inactives show at the highest dose signal change, negative = less light; active = well fitted falling curve with a large enough effect; inconclusive = small, poorly fitted or top-dose-only effect; inactive = no such curve, though single readings can be large or run the other way; tested in HEK293T cells; also: % is scaled to controls: 0 for no effect and ±100 for the full control effect; nearly all actives have a fitted effect of over 45% in size; luciferase light after 4 h
# Cruzain inh Det: blocks cruzain activity in presence of Triton detergent; Potency, µM, without a hit: max response, negative = inhibition, hits mostly inhibitors; AID 1478; 200,000 compounds, 0.43% hits; P25779; purified cruzain, Z-FR-AMC fluorescence, 0.01% Triton;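 also: plate controls were neutral wells for no effect and buffer without enzyme for full effect; nearly all actives have a fitted effect of over 40% in size; top concentration of the series not given in the record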
#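 Cysteine protease activity tested under reducing, mildly acidic conditions (100 mM sodium acetate pH 5.5, 5 mM DTT) plus 0.01% Triton X-100. Cruzain 1.5 nM; substrate Z-FR-AMC 2 uM; 15 min compound preincubation at room temperature.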
# Active calls of the source: *; ? = inconclusive; . = not tested or not shown; & = joins results of further samples; [ ] = another dose, or the depositor's remark. Unless noted, calls follow the shape of the dose curve; as a rule, active = well fitted curve in the direction sought with a large enough effect; inconclusive = small, poorly fitted or top-dose-only effect, or another doubt; inactive = no such curve, though single readings can be large; an effect the other way counts as inactive or inconclusive. Potency is read from the fitted curve at half-maximal effect.
# Preview:
SMILES,SARS PLP yeast,Cruzain inh noDet,Marburg entry inh,RE007 growth inh,LASV entry inh,NS1 function inh,2A StopGo,Cruzain inh Det
CC(C)(C)n1nnnc1C(c1cccnc1)N(Cc1ccccc1)Cc1ccco1 (stereo not given),2%,10%,-13%,9%,3%,3%,-13%,0.7%
CCOC(=O)c1[nH]c2ccc(OC)cc2c1NC(=O)CCN1CCSCC1,20%,-2%,?,-6%,2%,13%,-14%,-4.5%

# This part in full, from the first entry:
SMILES,SARS PLP yeast,Cruzain inh noDet,Marburg entry inh,RE007 growth inh,LASV entry inh,NS1 function inh,2A StopGo,Cruzain inh Det
CC(C)(C)n1nnnc1C(c1cccnc1)N(Cc1ccccc1)Cc1ccco1 (stereo not given),2%,10%,-13%,9%,3%,3%,-13%,0.7%
CCOC(=O)c1[nH]c2ccc(OC)cc2c1NC(=O)CCN1CCSCC1,20%,-2%,?,-6%,2%,13%,-14%,-4.5%
COc1ccccc1C1=NCc2nnc(CSC)n2-c2ccc(Cl)cc21,.,.,-14%[46.1 µM],14%,1%[46.1 µM],.,-17%,.
CC(C)NC(=O)NC(=O)COC(=O)c1ccc(NC(=O)CC#N)cc1,.,4%,9%,5%,14%,12%,-11%,4.3%
O=C(CCSCc1ccccc1F)N1CCN(c2ccccn2)CC1,9%,13%,28%,-10%,28%,-16%,.,-7.0%
O=C(O)CCC(=O)Nc1cccc2cccnc12,-1%,.,10%[46.1 µM],-27%,2%,1%,13%,.
CCOC(=O)c1cc(C)nc(Sc2ccc(C)cc2)c1C#N,-3%,.,-24%[46.1 µM],11%,-53%,-6%,8%,.
Cc1cc(SCC(=O)N2CCCC2=O)nc2c(C)cccc12,.,.,26%,-20%,2%,.,-9%,.
O=C(Nc1ccn(Cc2c(F)c(F)c(F)c(F)c2F)n1)c1ccc(COc2ccccc2Cl)cc1,-4%,?,?,-8%,?,5%,?,-2.4%
Cc1ccc(S(=O)(=O)N2CCC(C(=O)NCc3cccnc3)CC2)cc1,9%,-2%,0%,8%,7%,8%,-15%,7.6%
CCC(C)NC(=O)C1CCN(C(=O)c2ccccc2)CC1 (stereo not given),2%,-1%,11%,-3%,8%,9%,16%,-0.5%
CNS(=O)(=O)c1ccc2c3c(cccc13)C(=O)N2,1%,.,11%,2%,-2%,-2%,39%[activator],.
COc1ccc(C)cc1S(=O)(=O)N1CCc2ccccc2C1,0%,.,?,6%,25%[46.1 µM],-7%,10%,.
CCc1noc(C)c1C(=O)NC1CCCc2c1cnn2-c1ccc(C(C)(C)C)cc1 (stereo not given),?,.,-16%,-4%,3%,11%,-2%,.
COc1ccc(CC(=O)Nc2c3c(nn2C(C)(C)C)CS(=O)C3)cc1 (stereo not given),-1%,?,.,2%,.,4%,-3%,-0.2%
Cc1ccc(-c2nc(NCCN(C)C)c3ccccc3n2)cc1,0%,.,?,-3%,?,-20%,36%[activator],.
COC(=O)c1ccccc1N/C=C/C(=O)c1ccc(Br)cc1,18%,-1%,10%,30%,4%,-2%,19%,-7.7%
CN1C(=O)N(C)C(c2ccccc2Cl)C2=C1CC(C)(C)CC2=O (stereo not given),.,.,1%[46.1 µM],0%,-16%,10%,-10%,.
Cc1cc(C)cc(NC(=O)CCS(=O)(=O)c2ccc3c(c2)oc(=O)n3C)c1,.,-8%,.,.,0%[46.1 µM],.,-15%,-1.6%
Cc1noc(C(F)(F)F)c1C(=O)NNC(=O)c1cccc(C(F)(F)F)c1,1%,.,.,9%,.,-9%,-14%,.
O=C(NC1CCN(S(=O)(=O)c2ccccc2)CC1)c1ccc(F)cc1,-1%,.,.,1%,.,?,3%,.
O=C(NCc1ccc2c(c1)OCO2)c1ccc(NS(=O)(=O)c2ccc3c(c2)OCCO3)cc1,0%,?,15%&15%,5%,4%,-31%,37%[activator],-1.6%
Cc1ccc(NC(=O)CSCC(=O)Nc2ccccc2C(=O)N2CCCCC2)cc1,-3%,.,1%[46.1 µM],5%,9%,.,-12%,.
CCCCn1c(N)c(N(CCOC)C(=O)C2CCN(C(=O)c3ccc(Cl)cc3)CC2)c(=O)[nH]c1=O,4%,.,19%,14%,6%[46.1 µM],.,-21%,.
CCOc1nc(C)cc(C)c1S(=O)(=O)c1cccc(Cl)c1,-6%,.,.,-10%,.,-12%,-13%,.
CC(C)(Oc1ccc(Cl)cc1)C(=O)OCC(=O)Nc1ncc(Cl)cc1Cl,-11%,-1%,-20%,1%,17%,-99%,-5%,-7.3%
COc1ccc(C)cc1S(=O)(=O)Nc1cccc(-c2ccc(N3CCCC3)nn2)c1,.,15%,.,.,1%[46.1 µM],.,13%,-2.2%
CSc1ccc(/C=N/NC(=O)c2cccs2)cc1,-1%,.,?,-1%,.,-2%,0%,.
CCOC(=O)c1ccc2c(c1)N(CC#N)C(=O)C(C)(C)O2,0%,.,.,-17%,.,-3%,10%,.
COc1ccccc1NC(=O)N(c1c(N)n(Cc2ccccc2)c(=O)[nH]c1=O)C1CCCC1,2%,3%,7%,-5%,0%,-7%,8%,3.8%
Cn1c(=O)c2cc(S(=O)(=O)N3CCN(c4cccc(C(F)(F)F)c4)CC3)ccc2n(C)c1=O,5%,?,-29%,-2%,1%,-6%,-28%,-5.4%
CCOC(=O)c1ccccc1NC(=O)c1ccccc1SC,-1%,-24%,?,-3%,0%,-4%,-13%,-4.0%
O=C(CSc1nnc(COc2ccc(Br)cc2)o1)N1CCOCC1,-1%,.,1%[46.1 µM],14%,-11%,-7%,-13%,.
COc1ccccc1CN1CCCC(N2CCN(c3ccccc3OC)CC2)C1 (stereo not given),12%,.,.,-6%,.,14%,-18%,.
COc1ccc(NC(=S)N(CCN(C)C)C(C)c2ccncc2)cc1Cl (stereo not given),0%,.,-13%,1%,-3%,-36%,20%,.
O=C(/C=C/c1ccc(OCc2c(F)cccc2Cl)cc1)N1CCOCC1,-5%,.,?,-1%,?,5%,9%,.
COc1ncnc(OC)c1NC(=O)c1ccc(F)cc1,2%,-4%,-1%,-10%,-12%,5%,19%,2.6%
Cc1nc2cc(-c3cccc(F)c3)nn2c(C)c1CCC(=O)NC1CCCCC1,.,-6%,?,.,?,.,-3%,2.1%
C=CCN1C(=O)C(Cc2ccc(OCC)cc2)S/C1=N\N=C\c1cccs1 (stereo not given),-20%,-7%,-27%,-5%,11µM*,4%,-15%,0.3%
CN(CC(=O)Nc1ccc(Cl)c(C(F)(F)F)c1)C(=O)Cc1n[nH]c(=O)c2ccccc12,-2%,.,-26%,20%,?,.,?,.
Cc1cc(C)c(C)c(S(=O)(=O)Nc2ccccc2C(=O)O)c1C,1%,.,-9%&-9%[46.1 µM],41%,-3%[46.1 µM],.,-20%,.
O=C(c1ccoc1)N1CCC2(CC1)Oc1ccc(Cl)cc1C(=O)C21CC(c2ccc(Cl)cc2)=NO1 (stereo not given),-3%,.,.,-8%,.,4%,-29%,.
O=C(Nc1ccc(N2CCN(c3ccccc3)CC2)c(F)c1)C1CC1,-1%,.,2%,0%,?,.,-8%,.
COc1ccccc1N1CCN(c2ccnc3cc(Cl)ccc23)CC1,-9%,.,?,-28%,?,9%,-11%,.
CC1CCCN(c2nc3ccsc3c(=O)s2)C1 (stereo not given),-18%,-3%,25%,-6%,10%,-32%,18%,-0.5%
CC1CCCN(C(=O)COC(=O)c2n[nH]c3ccccc23)C1 (stereo not given),-6%,12%,?,28%,10%,3%,9%,2.1%
OCCC1CN(Cc2cccn2-c2ccccn2)CCN1Cc1ccccc1 (stereo not given),1%,.,.,-11%,.,2%,4%,.
C=CCc1c(C)nc2nc(SCC(=O)Nc3ccc(OCC)cc3)nn2c1C,.,-7%,.,.,-5%[46.1 µM],.,-8%,8.0%

# Single entries from the entries so far.
# For RE007 growth inh, OCCC1CN(Cc2cccn2-c2ccccn2)CCN1Cc1ccccc1 (stereo not given) reads -11%
# For 2A StopGo, COc1ncnc(OC)c1NC(=O)c1ccc(F)cc1 reads 19%
# For SARS PLP yeast, O=C(c1ccoc1)N1CCC2(CC1)Oc1ccc(Cl)cc1C(=O)C21CC(c2ccc(Cl)cc2)=NO1 (stereo not given) reads -3%
# For NS1 function inh, CC1CCCN(C(=O)COC(=O)c2n[nH]c3ccccc23)C1 (stereo not given) reads 3%
# For SARS PLP yeast, CC1CCCN(c2nc3ccsc3c(=O)s2)C1 (stereo not given) reads -18%

# The results go on:
SMILES,SARS PLP yeast,Cruzain inh noDet,Marburg entry inh,RE007 growth inh,LASV entry inh,NS1 function inh,2A StopGo,Cruzain inh Det
COc1cc(OC)cc(C(=O)Nc2ccc(S(=O)(=O)N(C)C)cc2)c1,8%,0%,9%,-7%,-16%,-16%,-4%,4.7%
CC1CN(S(=O)(=O)c2ccc(C(=O)NCCCn3ccnc3)cc2)CC(C)O1 (stereo not given),-1%,.,-26%[46.1 µM],-7%,?,.,-21%,.
CCOC(=O)c1c(C)n(C)c2cc(-c3ccc(F)cc3)c(O)cc12,-11%,?,17%,-10%,11%,2%,-17%,-2.1%
O=C(NCc1cccc(C(F)(F)F)c1)c1ccc(=O)[nH]c1,2%,.,-1%[46.1 µM],-1%,-19%,?,10%,.
Cc1ccc(F)c(NC(=O)c2c(-c3ccccc3)noc2C)c1,1%,.,.,8%,.,-21%,0%,.
Cc1ccc2oc(=O)n(CCCOc3ccccc3C)c2c1,-1%,.,?,20%,-12%,-6%,10%,.
Clc1cccc(CON/C=N/c2ncnc3sccc23)c1,-25%,-9%,-22%,?,-29%,-49%,?,-3.6%
Cc1cc(C(F)F)n2ncc(C(=O)N3CCCCC3)c2n1,6%,-5%,-3%,5%,9%,15%,11%,-1.5%
FCCCOc1ccc(CN2CCN(c3ccccc3F)CC2)cc1,0%,.,0%[46.1 µM],-16%,?,-3%,-17%,.
Cc1csc(NC(=O)c2nc3nccc(C)n3n2)n1,-2%,-5%,?,-9%,5%,-3%,54%[activator],-1.6%
Cc1c(NC(=O)C(C)OC(=O)c2cc(Cl)nc(Cl)c2)c(=O)n(-c2ccccc2)n1C (stereo not given),2%,-2%,-7%,-12%,0%,6%,-14%,-1.2%
